# Screens (PubChem BioAssay)
# BJeLR viability: kills HRASV12-expressing BJeLR cells. 300,000 tested, 0.17% active. inhibition, % (concentration not given with the values). BJeLR (HRASV12) viability, CellTiter-Glo ATP luminescence, 48 h; reference of the scale not given here;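 active = replicate mean above 50%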;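 also: 50 nL library stock added to about 25 µL; numbers are from one replicate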
# Sa RN4220 lethal: S. aureus RN4220 growth inhibition; OD600, 16 h; inhibition, % (test concentration not listed); 330,000 tested, 0.33% active;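 active = z-score of -3 or lower and OD600 up to 0.18 on both plates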;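 also: plate controls were untreated cells for no effect and reference antibiotic for full effect; stock transfer was 100 nL into about 80 µL; one replicate is shown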
# Autofluor counter: compound fluorescence in toxin protease inhibitor counterscreen. compound autofluorescence counterscreen, microsphere flow cytometry; stronger effect = higher value. fluorescence intensity (no concentration beside the values). 360,000 tested, 3.1% active. AID 624483;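 active = at least 3 SD above the mean of all compounds, about 16000 in these data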;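 also: 100 nL of 1 mM stock went into each well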
# PrP UTR inh: inhibition of PrP 5' UTR reporter expression. inhibition, % (test concentration not listed). cell-based PrP 5' UTR mRNA reporter, plate reader. 340,000 tested, 0.35% active;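 active = every replicate at 50% or more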;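 also: 0 = median of the neutral control wells; tested in H4 reporter cells; numbers are from one replicate; inactives centre near -14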
# Mtb hypoxia inh: reduces hypoxia-regulated biosensor signal in M. tuberculosis; fluorescence inhibition, % (no concentration beside the values); AID 1159583; 300,000 tested, 0.1% active; M. tuberculosis hypoxia-regulated fluorescent reporter, fluorescence;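 active = 35 to 45% if threefold the growth effect, above 45% if 1.5-fold the growth effect; inactive = the rest, general growth blockers included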;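 also: wells of about 50 µL received 100 nL stock; 0% = vehicle wells and 100% = reference inhibitor wells; whole bacteria with a GFP reporter of the hypoxia response; strong numbers were not always called active; many hits fall short of the cut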
# Sa ugtP lethal: growth inhibition of S. aureus ugtP deletion strain; S. aureus RN4220 ugtP deletion, OD600 growth, 16 h; some inactives read as strong as hits; growth inhibition, % (concentration not given with the values); 330,000 tested, 0.54% active;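 active = z-score under -3 and OD600 up to 0.15 on both plates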;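 also: plate controls were untreated wells for no effect and antibiotic for full effect; wells of about 80 µL received 100 nL stock; the first replicate is given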
# Mtb hypoxia inh growth: second read-out of Mtb hypoxia inh, no call of its own (marks repeat the call); growth inhibition, %; measured here: M. tuberculosis growth (absorbance);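 0% = vehicle and 100% = reference antibiotic; read after six days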
# The depositor's hits bear a star; . = not tested or not shown.
1) CCOc1cc(-n2cnnn2)c(OCC)cc1NC(=O)c1cnccn1
2) CC1(C)SC(=S)N(/N=C/c2cccnc2)C1N(O)C(=O)Nc1ccccc1 (configuration not stated)
3) Cc1ccc(OCc2csc(N)n2)cc1
4) C/C(=C\C(=O)c1cccnc1)Nc1ccc(C)c(C)c1
5) N#CCSc1nc2c(cc1C#N)CCCCCC2
6) Cc1ccc(NC(=O)c2ccccc2-c2ccccc2C(=O)O)cc1
7) O=C(CCCc1ccccc1)Nc1ccc2c(c1)OCCO2
8) CN(C)CCCN(C(=O)c1ccco1)c1nc(-c2ccc(Cl)cc2)cs1
Compound,1,2,3,4,5,6,7,8
BJeLR viability,3,-11,-1,-4,.,-1,5,7
Sa RN4220 lethal,20,.,2.0,3.8,-0.1,3.6,1.7,-3.6
Autofluor counter,11572,4862,4278,10613,5120,2122,3530,3098
PrP UTR inh,-19,-7,-114,-78,-10,-21,-19,-29
Mtb hypoxia inh,12,.,4,14,.,.,8,18
Mtb hypoxia inh growth,6,.,-2,6,.,.,2,7
Sa ugtP lethal,2,.,4,-5,-1,13,10,-6

9) COCCn1c(SCC(=O)Nc2sc(C)c(C)c2C#N)nnc1C(C)C
10) CC1(C)C(=O)C2(CCCCC2)C(=O)OC1C(=O)c1ccccc1 (configuration not stated)
11) Cc1cc(C)c(C(=O)/C=C/c2ccc3c(c2)OCO3)c(=O)[nH]1
12) Cn1ncc([N+](=O)[O-])c1C(=O)Nc1ccc(-c2ccccc2)cc1
13) COc1ccc(NC(=O)CN(C)C(=O)c2cc(-c3ccccc3)nc3ccccc23)cc1
14) O=C(NNC(=O)c1cc(S(=O)(=O)N2CCOCC2)c(Cl)cc1Cl)c1ccccc1F
15) COC(=O)[C@@]1(Cc2ccc(F)cc2)C2c3cc(C(=O)N4CCCC4)n(CCc4ccccn4)c3CC2CN1C(=O)c1ccccc1 (some centres not stated)
16) O=C(OCc1nnc(-c2ccccc2)o1)c1ccc(S(=O)(=O)NCc2ccco2)cc1
Compound,9,10,11,12,13,14,15,16
BJeLR viability,-3,3,-3,1,5,.,.,1
Sa RN4220 lethal,6.1,6.1,4.1,1.9,0.2,2.4,4.4,-0.1
Autofluor counter,4098,2041,2433,3858,4958,4182,.,4791
PrP UTR inh,-9,-9,5,-15,-67,-18,.,3
Mtb hypoxia inh,-5,3,12,5,5,14,7,.
Mtb hypoxia inh growth,-15,16,5,15,2,-2,10,.
Sa ugtP lethal,-2,1,4,0,6,-2,-6,-8

17) COc1ccc(N(C(=O)CNC(=O)c2cccs2)C(C(=O)NCC2CCCO2)c2ccccc2)cc1 (configuration not stated)
18) O=c1c2cccc3c2c(nn1CN1CCOCC1)-c1ccccc1-3
19) COC(=O)CCC(=O)N1CN2CN(C(=O)CCC(=O)OC)CC([N+](=O)[O-])(C2)C1
20) COc1ccc(OC)c(C=NNC(=O)c2ccc(N(C)S(=O)(=O)c3ccccc3)cc2)c1
21) O=C(Nc1cc2c3c(c1)CC(=O)N3CCC2)C1CCCCC1
22) CC(C)CCOc1ccc(C2(C)NC(=O)NC2=O)cc1 (configuration not stated)
23) COc1ccccc1C(=O)Nc1ccc(S(=O)(=O)N2CCN(C)CC2)cc1
24) Cc1ccc(S(=O)(=O)N2CCN(C(=O)c3ccco3)CC2)cc1
Compound,17,18,19,20,21,22,23,24
BJeLR viability,-5,-14,11,.,5,-2,11,-14
Sa RN4220 lethal,-1.5,11,0.7,1.2,0.4,2.7,-0.6,-0.6
Autofluor counter,4156,4078,4362,.,5168,4675,3773,3565
PrP UTR inh,-32,-3,2,.,-4,-14,-8,-9
Mtb hypoxia inh,-6,6,-4,-15,1,7,-9,-1
Mtb hypoxia inh growth,-2,1,-4,10,6,-8,4,8
Sa ugtP lethal,-2,37,0,5,6,4,-4,5

25) O=C(NC1CCCC1)C(c1cccnc1)N(C(=O)c1csnn1)c1ccccc1 (configuration not stated)
26) CCCS(=O)(=O)c1cscc1NC(=O)c1c(-c2c(F)cccc2Cl)noc1C
27) COc1ccc(CCNC(=O)CNCC2CCCCC2)cc1OC
28) Cc1n(N)c2ccccc2[n+]1CC(=O)c1ccccc1
29) CCC[C@@H]1CCCO[C@@](C(=O)NCc2ccc(S(C)(=O)=O)cc2)(C(F)(F)F)C1
30) CCOC(=O)c1c(O)c2ccccc2oc1=O
31) O=C(c1cccnc1)N1N=C(C2CC2)CC1(O)C(F)(F)F (configuration not stated)
32) O=C(NC1CCCC1)C(c1ccccc1F)N(C(=O)c1csnn1)C1CC1 (configuration not stated)
Compound,25,26,27,28,29,30,31,32
BJeLR viability,3,0,-4,-7,8,2,1,-12
Sa RN4220 lethal,1.9,1.9,1.4,2.8,.,7.7,4.7,2.6
Autofluor counter,3878,5452,2941,3329,2912,4301,1995,2959
PrP UTR inh,-11,-27,-12,7,-5,-46,-15,-20
Mtb hypoxia inh,6,-7,11,17,.,6,6,4
Mtb hypoxia inh growth,3,1,2,-2,.,4,4,-1
Sa ugtP lethal,5,4,6,13,.,2,-5,10

33) O=C(CN(c1ccc(Cl)c(C(F)(F)F)c1)S(=O)(=O)c1ccccc1)N/N=C/c1cccc2c1OCCO2
34) CCCCNC(=O)[C@H]1C[C@H]1[C@@H](O)[C@H](CO)NC(=O)[C@H](Cc1ccccc1)NC(=O)OC(C)(C)C
35) CCC(=O)N1CCc2nc(-c3ccccc3)sc2C1
36) O=C(CCC1N=C2c3ccccc3N=C(SCc3ccc(F)cc3)N2C1=O)NCc1ccco1 (configuration not stated)
37) O=C(CCNS(=O)(=O)c1c(Cl)cccc1Cl)OCC(=O)c1ccccc1
38) COc1ccc2c(c1)C1CC(C)(NC(=O)C1C(=O)c1ccccc1)O2 (configuration not stated)
39) Fc1ccc(-c2csc(-c3cccnc3)n2)cc1F
40) CC(=O)N1N=C(c2cccnc2)OC1c1ccc(C(C)C)cc1 (configuration not stated)
Compound,33,34,35,36,37,38,39,40
BJeLR viability,-1,3,4,-5,15,-6,2,-5
Sa RN4220 lethal,.,.,4.9,4.1,3.5,2.9,6.1,4.1
Autofluor counter,2123,3384,4105,4009,2433,4018,4112,2639
PrP UTR inh,-4,-22,-31,-21,-12,-3,-32,-33
Mtb hypoxia inh,.,.,1,21,8,1,2,7
Mtb hypoxia inh growth,.,.,-1,14,5,7,-1,8
Sa ugtP lethal,.,.,-1,11,4,-6,-2,8

41) Cc1onc(-c2ccccc2Cl)c1C(=O)Nc1ccc(Cl)cn1
42) CN(CC(=O)N1CCN(Cc2ccccc2)CC1)S(=O)(=O)c1ccc(F)cc1
43) Cc1[nH]n(-c2cccc([N+](=O)[O-])c2)c(=O)c1-c1ccccc1
44) O=C(CN1C(=O)NC2(CCCC2)C1=O)Nc1nc2ccccc2s1
45) Cc1noc(C)c1NC(=O)N(C)CC1Oc2ccc(NC(=O)Cc3ccccc3)cc2C(=O)N(C(C)CO)CC1C (configuration not stated)
46) CN(C)c1ccc(/C=C2/C(=O)NC(=O)N(Cc3ccco3)C2=O)cc1
47) COC(=O)c1ccc(S(=O)(=O)c2ccccc2)c(N)c1
48) COc1ccc(S(=O)(=O)CCC(=O)N2c3ccccc3CC2C)cc1 (configuration not stated)
Compound,41,42,43,44,45,46,47,48
BJeLR viability,-2,3,-5,15,.,1,-1,-11
Sa RN4220 lethal,2.4,-2.7,9.4,-0.5,4.8,0.8,0.0,-1.9
Autofluor counter,4902,5415,2457,5625,.,2275,4913,3180
PrP UTR inh,-30,-13,-1,-21,.,-8,-2,-20
Mtb hypoxia inh,6,2,-1,2,2,.,8,.
Mtb hypoxia inh growth,2,-1,5,9,3,.,-3,.
Sa ugtP lethal,7,4,6,-6,-1,2,-3,5

49) COc1ccc(OC)c(S(=O)(=O)N2CCC(C(=O)N3CCN(Cc4ccccc4)CC3)CC2)c1
50) Cc1cc(C)nc(NC(=O)c2cc(Br)ccc2Cl)n1
51) Cc1cc(N2CCN(S(=O)(=O)c3ccc4c(c3)OCCO4)CC2)n2ncnc2n1
52) CC(=O)n1cc([C@H]2C=C(C(=O)N3CCN(Cc4ccc5c(c4)OCO5)CC3)O[C@@H](OCc3ccc(CO)cc3)C2)c2ccccc21
53) O=C(CSc1ncn[nH]1)NCCc1ccc(Cl)cc1
54) Cc1cccc(-n2c(SCC(N)=O)nnc2-c2ccccn2)c1C
55) COC(=O)c1cc(NC(=O)Nc2ccccc2)ccc1Cl
56) CCc1ccccc1NC(=O)CNC(=O)CSC(=S)N1CCCC1
Compound,49,50,51,52,53,54,55,56
BJeLR viability,-1,1,6,-6,-8,-2,-10,.
Sa RN4220 lethal,-14,0.6,5.5,.,1.2,0.1,-0.5,1.1
Autofluor counter,2903,2355,23595*,3810,3152,3357,11395,3097
PrP UTR inh,-20,-10,-13,5,-6,-30,-22,-20
Mtb hypoxia inh,3,15,0,.,-3,.,6,13
Mtb hypoxia inh growth,-2,7,2,.,-2,.,20,9
Sa ugtP lethal,-2,0,10,.,-1,5,-18,-1

57) COc1ccccc1C1CN(c2ccccc2)N=C1c1cccs1 (configuration not stated)
58) CCOc1ccc(-c2n[nH]c(=S)n2/N=C/c2cc3c(cc2[N+](=O)[O-])OCO3)cc1
59) COc1cc(C(=O)NNC(=O)c2ccc3c(c2)OCCO3)cc(OC)c1OC
60) COc1ccc(OC)c(NC(=O)CN(Cc2ccc(Cl)cc2)S(C)(=O)=O)c1
61) Cc1cnc(NC(=O)CSc2nnc(-c3ccncc3)n2C2CCCCC2)s1
62) Cn1c(O)c(C(c2ccccn2)c2c(O)n(C)c(=S)[nH]c2=O)c(=O)[nH]c1=S
63) O=C(CON=C1c2ccccc2-c2ccccc21)NC12CC3CC(CC(C3)C1)C2
64) COc1ccc(CNc2nc(SC)n[nH]2)cc1OC
65) CCOC(=O)c1c2n(c3ccc(O)cc13)CCCCC2
66) O=C1NC(=O)/C(=C\c2ccccc2OCc2ccc([N+](=O)[O-])cc2)N1
67) Cc1ccc(S(=O)(=O)NCC(=O)N(CC(=O)NCc2ccco2)Cc2ccc3c(c2)OCO3)cc1
Compound,57,58,59,60,61,62,63,64,65,66,67
BJeLR viability,-5,3,.,7,6,0,3,2,1,10,-1
Sa RN4220 lethal,-15,.,4.6,3.1,-3.4,.,-5.5,-1.5,-0.9,2.0,-2.3
Autofluor counter,9944,7337,3405,4094,8785,5854,2503,4291,3571,2148,4786
PrP UTR inh,-14,-19,-22,-8,-2,-37,4,-12,-18,-10,-15
Mtb hypoxia inh,16,.,19,-7,-11,.,12,.,.,11,.
Mtb hypoxia inh growth,1,.,10,-4,7,.,5,.,.,15,.
Sa ugtP lethal,44,.,-3,-8,-4,.,-24,9,-10,8,-2

# In the list so far, these have a Cl atom:
8) CN(C)CCCN(C(=O)c1ccco1)c1nc(-c2ccc(Cl)cc2)cs1
14) O=C(NNC(=O)c1cc(S(=O)(=O)N2CCOCC2)c(Cl)cc1Cl)c1ccccc1F
26) CCCS(=O)(=O)c1cscc1NC(=O)c1c(-c2c(F)cccc2Cl)noc1C
33) O=C(CN(c1ccc(Cl)c(C(F)(F)F)c1)S(=O)(=O)c1ccccc1)N/N=C/c1cccc2c1OCCO2
37) O=C(CCNS(=O)(=O)c1c(Cl)cccc1Cl)OCC(=O)c1ccccc1
41) Cc1onc(-c2ccccc2Cl)c1C(=O)Nc1ccc(Cl)cn1
50) Cc1cc(C)nc(NC(=O)c2cc(Br)ccc2Cl)n1
53) O=C(CSc1ncn[nH]1)NCCc1ccc(Cl)cc1
55) COC(=O)c1cc(NC(=O)Nc2ccccc2)ccc1Cl
60) COc1ccc(OC)c(NC(=O)CN(Cc2ccc(Cl)cc2)S(C)(=O)=O)c1
Compound,8,14,26,33,37,41,50,53,55,60
BJeLR viability,7,.,0,-1,15,-2,1,-8,-10,7
Sa RN4220 lethal,-3.6,2.4,1.9,.,3.5,2.4,0.6,1.2,-0.5,3.1
Autofluor counter,3098,4182,5452,2123,2433,4902,2355,3152,11395,4094
PrP UTR inh,-29,-18,-27,-4,-12,-30,-10,-6,-22,-8
Mtb hypoxia inh,18,14,-7,.,8,6,15,-3,6,-7
Mtb hypoxia inh growth,7,-2,1,.,5,2,7,-2,20,-4
Sa ugtP lethal,-6,-2,4,.,4,7,0,-1,-18,-8

# 2 records picked at random from the list so far, as already listed:
60) COc1ccc(OC)c(NC(=O)CN(Cc2ccc(Cl)cc2)S(C)(=O)=O)c1
62) Cn1c(O)c(C(c2ccccn2)c2c(O)n(C)c(=S)[nH]c2=O)c(=O)[nH]c1=S
Compound,60,62
BJeLR viability,7,0
Sa RN4220 lethal,3.1,.
Autofluor counter,4094,5854
PrP UTR inh,-8,-37
Mtb hypoxia inh,-7,.
Mtb hypoxia inh growth,-4,.
Sa ugtP lethal,-8,.
